Screens from PubChem.
GIV-Gai inh – inhibitors of GIV GBA-motif binding to rat Galpha-i3; AID 1224905; percent of control (FP), % (concentration not given with the values); P08753; Galpha-i3/FITC-GIV peptide fluorescence polarization, 90 min; hits give low values; scaled: aluminum fluoride 0%, vehicle 100%; 0.42% of 210,000 active;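 active = replicate mean at 85% of control or lower, very high polarization wells dropped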;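 also: wells of about 15 µL received 100 nL stock; the first replicate is given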
Target sequence (P08753 whole entry, looked up): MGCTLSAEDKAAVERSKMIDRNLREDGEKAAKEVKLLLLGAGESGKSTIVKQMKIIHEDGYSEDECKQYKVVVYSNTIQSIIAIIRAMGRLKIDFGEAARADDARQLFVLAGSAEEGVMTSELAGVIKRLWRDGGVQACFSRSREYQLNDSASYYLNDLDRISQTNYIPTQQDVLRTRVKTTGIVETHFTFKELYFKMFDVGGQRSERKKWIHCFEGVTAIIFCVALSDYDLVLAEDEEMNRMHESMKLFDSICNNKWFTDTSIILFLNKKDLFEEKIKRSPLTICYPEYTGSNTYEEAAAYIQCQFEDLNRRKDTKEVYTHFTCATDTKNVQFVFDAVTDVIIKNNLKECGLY
* marks the source's active call; other numbers are inactive results.

#	SMILES	GIV-Gai inh
1	COc1cccc(NC(=O)N2CCCC2c2cc(C)no2)c1 (stereo not drawn)	106.1
2	Cc1sc2ncnc(SCC(=O)Nc3sc4c(c3C#N)CCC4)c2c1C	106.2
3	COc1ccc(N=c2ssc3c2-c2ccc(C)cc2NC3(C)C)c(OC)c1	105.1
4	CCn1c(SCc2nc(-c3cccc(Cl)c3)no2)nc2cc3c(cc2c1=O)OCO3	99.4
5	COc1cc2c(cc1OC)C(C)N(C(=O)CN1C(=O)C3C4C=CC(C4)C3C1=O)CC2 (stereo not drawn)	95.2
6	CCOc1cc(C2C(C(=O)N3CCCCC3)=C(C)NC3=C2C(=O)CC(C)(C)C3)cc(Br)c1OCC (stereo not drawn)	98.5
7	CCOC(=O)c1ccc(-n2c(=S)sc3c2nc(SCC(=O)NCc2ccccc2)n2c4ccccc4nc32)cc1	96.9
8	COc1cccc(-c2nc(-c3cc(OC)ccc3OC)[nH]c2-c2cccc(OC)c2)c1	103.9
9	O=C(c1cccc(N2C(=O)C3C4C=CC(C4)C3C2=O)c1)N1CCN(Cc2ccccc2)CC1 (stereo not drawn)	99.0
10	Cc1ccc(-n2[nH]c(C)c(C=Nc3cc([N+](=O)[O-])ccc3Cl)c2=O)cc1	106.9
11	COc1ccc(C2(c3ccc(OC(C)=O)cc3OC(C)=O)CC(c3ccccc3)NC(=S)N2)cc1 (stereo not drawn)	109.8
12	N#CC1(C#N)C(c2ccc(Cl)cc2)C(C(=O)c2ccccc2)N2c3ccccc3C=CC21 (stereo not drawn)	132.2
13	NS(=O)(=O)c1ccc(CCNC(=O)c2ccc3c(=O)n(CC4CCCO4)c(=S)[nH]c3c2)cc1 (stereo not drawn)	111.9
14	COc1ccc(C2C(C(=O)OC3CCCC3)=C(C)NC3=C2C(=O)CC(c2cccs2)C3)cc1OC (stereo not drawn)	104.1
15	CCOC(=O)c1[nH]c(C)c(CCC(=O)N2CCCC(C(=O)N3CCN(CC)CC3)C2)c1C (stereo not drawn)	104.5
16	Cc1ccc2nc3[nH]c4ccccc4c3nc2c1	111.8
17	O=C(NC(Cc1c[nH]c2ccccc12)C(=O)O)/C(=C\c1ccc(F)cc1)NC(=O)c1ccccc1 (stereo not drawn)	108.0
18	O=C(Nc1ccc(Cl)cn1)c1cnc(N2CCOCC2)c2ccccc12	95.8
19	COc1ccc(-c2nnc(-c3ccccc3)o2)cc1S(N)(=O)=O	104.9
20	O=[N+]([O-])c1cccc(S(=O)(=O)N(Cc2ccco2)CC2CCCO2)c1 (stereo not drawn)	107.2
21	Cc1cccc(C2(c3cccc(C)c3)CC2C(=O)Nc2cccc(C(F)(F)F)c2)c1 (stereo not drawn)	107.7
22	CC1CCc2c(sc3ncn4c(nc(=O)n4CC(=O)N(C)c4ccccc4)c23)C1 (stereo not drawn)	106.5
23	Cc1cn(C2CC(OC(=O)C(C)C)C(CO)O2)c(=O)[nH]c1=O (stereo not drawn)	100.2
24	Cc1[nH]n(-c2cccc(Cl)c2)c(=O)c1C=Nc1c(Cl)cc(Cl)cc1Cl	113.9
25	COc1ccc(-c2[nH]nc3c2C(c2cc(OC)c(O)c(OC)c2)C(C#N)=C(N)O3)cc1 (stereo not drawn)	116.1
26	CC(=O)C1=NN(c2cccc(Cl)c2)C2(S1)c1ccccc1C(c1ccccc1)=NN2c1ccccc1 (stereo not drawn)	108.7
27	COC(=O)c1ccc2c(=O)n(Cc3ccc(C(=O)NCCN4CCC(C)CC4)cc3)c(=S)[nH]c2c1	111.6
28	O=C(NN=C1CSc2sc(=S)sc2SC1)c1ccncc1	111.5
29	CN(C)S(=O)(=O)c1cc2c(cc1N1CCCC1)Oc1ccccc1NC2=O	114.2
30	Cc1cc(C)nc(NS(=O)(=O)c2ccc(NC(=O)CSc3nnc4c5ccccc5n(C)c4n3)cc2)n1	119.8
31	O=c1n(Cc2cccc(C(F)(F)F)c2)nc2c(S(=O)(=O)N3CCCCCC3)cccn12	107.2
32	O=C(CSc1ccccc1)NCc1nc2cccnc2n1Cc1ccc(F)cc1	109.0
33	CCCOC(=O)Nc1nc(-c2ccc(C)cc2)c(C)s1	104.0
34	Cc1csc(-c2cc(S(=O)(=O)N3CCCCC3)cn2CC(=O)N2CCCC2)n1	108.1
35	COc1ccc(N2C(=O)C3C(c4cccc(Cl)c4Cl)OC4(C(=O)c5ccccc5C4=O)C3C2=O)cc1 (stereo not drawn)	120.3
36	COc1cccc(NC(=O)CSc2nc3c(sc(=S)n3-c3ccccc3C)c3nc4ccccc4n23)c1	103.6
37	CCCCOc1ccc(C2N(c3ccc(C)cc3)CCN2c2ccc(C)cc2)cc1	103.2
38	O=C1CC(c2noc(C3CCC3)n2)CN1c1ccc(F)cc1 (stereo not drawn)	95.1
39	Cc1ccc(N=Cc2nc(-c3ccc([N+](=O)[O-])cc3)oc2O)c(Br)c1	107.6
40	COc1ccc(OC)c(-n2c(=S)[nH]c3cc(C(=O)N4CCN(c5ccccc5)CC4)ccc3c2=O)c1	105.2

An excerpt of these results, as labelled records.
21	Cc1cccc(C2(c3cccc(C)c3)CC2C(=O)Nc2cccc(C(F)(F)F)c2)c1 (stereo not drawn)
  GIV-Gai inh: 107.7
22	CC1CCc2c(sc3ncn4c(nc(=O)n4CC(=O)N(C)c4ccccc4)c23)C1 (stereo not drawn)
  GIV-Gai inh: 106.5

(further entries)
#	SMILES	GIV-Gai inh
41	COCCN1CCc2nc(SCc3c(F)cccc3Cl)[nH]c(=O)c2C1	99.3
42	COc1ccc(OC)c(C2NC(=O)NC(C)=C2C(=O)Nc2cccc(Cl)c2)c1 (stereo not drawn)	95.6
43	COC(=O)c1ccc2nc(-c3ccccc3)c(-c3ccccc3)nc2c1	100.2
44	O=C(NCc1cccc(Cl)c1)C1CCN(c2nn3c(=O)c4c(nc3s2)CCCC4)CC1	103.1
45	Cc1ccc(CNC(=O)CSc2nc3[nH]ncc3c(=O)n2-c2ccccc2Cl)cc1	111.1
46	COc1ccc(-c2cc(C(F)(F)F)n3nc(C(=O)NC(C)(C)C)c(Cl)c3n2)cc1OC	101.2
47	CCOC(=O)c1[nH]c(C)c(CN(Cc2ccc(OC)cc2)C(=O)Nc2ccc(OC)c(OC)c2)c1C	111.3
48	CN1CCN(C(=O)C2CC(=O)N(c3ccc4c(c3)CCN4C(=O)C3CC3)C2)CC1 (stereo not drawn)	99.8
49	O=C(Nc1cccc([N+](=O)[O-])c1)C(Cc1ccccc1)N1C(=O)C2C3c4ccccc4C(c4ccccc43)C2C1=O (stereo not drawn)	118.5
50	Cc1cc(C)c(C#N)c(Oc2cccc(NC(=O)CC(C)C)c2)n1	116.1
51	CCOC(=O)c1c(NC(=O)c2sc3nc(N)c(C#N)cc3c2N)sc2c1CCC2	113.2
52	O=C(CSc1nnc2c(n1)[nH]c1ccccc12)NCC1CCCO1 (stereo not drawn)	103.2
53	COc1cccc(-c2nc3sc4c(c3c(=O)n2CC(=O)Nc2ccc(C)cc2C)CCCC4)c1	108.0
54	O=C(O)C1CCCN(c2nc3c(-c4ccccc4)csc3c(=O)[nH]2)C1 (stereo not drawn)	100.9
55	Cc1noc(C2CN(C(=O)NC3CCCC3)CC23CCOCC3)n1 (stereo not drawn)	100.5
56	Cc1ccc2c(=O)c(-c3nc(-c4cccc(F)c4)no3)cn(CC(=O)Nc3ccc(C)c(C)c3)c2n1	129.7
57	OC(COc1ccc2oc3c(c2c1)CCCC3)CN1CCN(c2ccccc2)CC1 (stereo not drawn)	99.4
58	Cc1nn(-c2ccc3nnc(C)n3n2)c(C)c1CCC(=O)Nc1ccc(F)cc1	98.9
59	CCCc1[nH]n(-c2ccc(F)cc2)c(=O)c1C=NCCc1ccc(OC)cc1	103.6
60	COc1ccccc1N/C(SCc1ccccc1)=C(/C(Cl)=C(Cl)Cl)[N+](=O)[O-]	110.6
61	Cc1ccc(/C(O)=C2\C(=O)C(=O)N(c3nncs3)C2c2ccc(C)cc2)cc1 (stereo not drawn)	115.0
62	Cc1c(C(=O)NCC(C)C)c(C)n2cnn(CC(=O)NC3CCCCC3)c(=O)c12	105.1
63	COc1ccc(C2C3=C(CC(C)(C)CC3=O)Nc3ccccc3N2C(=O)Nc2ccc(F)cc2)cc1 (stereo not drawn)	99.4
64	Cc1ccc(NC(=O)CN2C(=O)COc3ccc(S(=O)(=O)N4CCC(C)CC4)cc32)c(Cl)c1	109.4
65	CCCc1[nH]n(-c2ccc(F)cc2)c(=O)c1C=NCCSc1ccc(Cl)cc1	105.4
66	Cc1nn(CC(=O)NC(C)(C)C)c(C)c1S(=O)(=O)N1CCC(C(=O)N2CCc3ccccc3C2)CC1	104.0
67	Cc1ccc(NC(=O)Nc2ccc(OCc3cc(=O)n4ccccc4n3)cc2)cc1C	103.0
68	Cc1ccc(C(=O)CN2C3=NCCN3c3ccccc32)cc1	104.3
69	O=C(NCCc1ccccc1)c1cc(N2CCCCC2)nc2ccccc12	101.8
70	Cc1ccccc1CNS(=O)(=O)c1cc(-c2nc(C)c(C)s2)sc1C	98.1
71	Cc1ccc(-c2cnc3ccccc3[n+]2C)c(C)c1	106.7
72	O=C(CN1C(=O)COc2ccccc21)Nc1ccc2c(c1)Sc1ccccc1C(=O)N2C1CCCC1	102.1
73	CC(C)(C)C(=O)[C@@H]1[C@@H](c2cccs2)C(C#N)(C#N)[C@H]2C=Cc3ccccc3N12	-45.3*
74	CN1c2cc(Cl)ccc2C(=O)NC12CCN(C(=O)Nc1ccc3c(c1)OCCO3)CC2	95.0
75	CC1=C(C(=O)OC(C)C)C(c2cccc(Cl)c2)C(C#N)=C(N)O1 (stereo not drawn)	111.3
76	COc1ccc(C2=N/C(=C/c3ccc(OC(C)=O)cc3)C(=O)O2)cc1Br	106.1
77	O=c1[nH]c(SCc2cc(F)cc(F)c2)nc2c1CN(Cc1ccccc1)CC2	98.6
78	Cc1cccc(/C=c2\sc3n(c2=O)C(N)=C(C#N)C(c2cccc(C)c2)C=3C#N)c1 (stereo not drawn)	111.8
79	Nc1nc(CSc2nc3ncccc3[nH]2)nc(N2CCCCC2)n1	106.7
80	Cc1ccccc1-c1nn2c(=O)cc(CN3CCN(C(=O)c4cccc(Br)c4)CC3)nc2s1	105.9

Screen by screen, from the results shown:
Entries 45–50 in GIV-Gai inh: 111.1, 101.2, 111.3, 99.8, 118.5, 116.1

(listing goes on)
#	SMILES	GIV-Gai inh
81	NC(=O)C1CCN(C(=O)c2ccc3c(c2)nc(SCc2cc(=O)n4cc(Cl)ccc4n2)n2c4ccccc4nc32)CC1	112.4
82	O=C(Nc1ccc([N+](=O)[O-])cc1)C(Cc1ccccc1)N1C(=O)C2C3c4ccccc4C(c4ccccc43)C2C1=O (stereo not drawn)	115.8
83	COc1ccc(S(=O)(=O)N2CCCC2c2cc(C(C)C)no2)cc1Cl (stereo not drawn)	103.8
84	COc1ccc(C2=NN3C(C2)c2cc(OC)ccc2OC3c2ccccc2Cl)cc1 (stereo not drawn)	103.2
85	c1ccc(Sc2ccc(-c3[nH]c(-c4ccccc4)nc3-c3ccccc3)cc2)cc1	99.2
86	CCOc1cc(/C=C2/C(=N)N3C(c4ccccc4)=CSC3=NC2=O)ccc1OCCOc1ccc(C)c(C)c1	110.3
87	CCSc1nnc(-c2nn(C)c3c2CN(S(=O)(=O)c2c(C)nn(C)c2C)CC3)n1C	97.0
88	Cc1c2c(nn1-c1ccc(SCC(=O)NC3CCCC3)nn1)CCC2	98.1
89	Cc1ccc2nc3[nH]c(=O)[nH]c(=O)c3nc2c1	102.6
90	CNC(=O)N1CCN(c2nc3cc(Br)ccc3n3cccc23)CC1	96.9
91	CCCCn1c(=O)nc2n(-c3ccc(Cl)cc3)c3ccccc3cc-2c1=O	108.4
92	Cc1nc(-c2cc(S(=O)(=O)Nc3ccccc3)c(C)s2)sc1C	100.2
93	CCOc1cc(C2C(C#N)=C(N)OC(COC)=C2C(=O)OC)cc([N+](=O)[O-])c1OC(=O)N1CCOCC1 (stereo not drawn)	118.1
94	Cc1cc(C)c(C)c(S(=O)(=O)N2CCCC2c2nc(-c3ccccc3)no2)c1C (stereo not drawn)	102.4
95	COc1ccc(N=CC23c4ccccc4C(c4ccccc42)C2C(=O)N(c4ccccc4Cl)C(=O)C23)cc1 (stereo not drawn)	105.7
96	Cc1cc2c(cc1C)C(c1ccccc1Cl)CC(=O)N2 (stereo not drawn)	109.1
97	CCCOc1ccc(C2Nc3ccccc3C(=O)N2c2ccc(Cl)c(Cl)c2)cc1 (stereo not drawn)	108.5
98	CCOC(=O)C1=NN(c2cccc(Cl)c2)C2(S1)SC(c1ccc(Br)cc1)(c1ccc(Br)cc1)c1ccccc12 (stereo not drawn)	107.3
99	CCOC(=O)c1ccc(OC(=O)c2cc3c(-c4ccccc4F)nn(C)c3s2)cc1	105.2
100	CCCc1[nH]n(-c2ccc(F)cc2)c(=O)c1C=NC1CC(C)(C)NC(C)(C)C1	104.1

The final 3 entries of the section before are carried over, then new ones follow.
#	SMILES	GIV-Gai inh
98	CCOC(=O)C1=NN(c2cccc(Cl)c2)C2(S1)SC(c1ccc(Br)cc1)(c1ccc(Br)cc1)c1ccccc12 (stereo not drawn)	107.3
99	CCOC(=O)c1ccc(OC(=O)c2cc3c(-c4ccccc4F)nn(C)c3s2)cc1	105.2
100	CCCc1[nH]n(-c2ccc(F)cc2)c(=O)c1C=NC1CC(C)(C)NC(C)(C)C1	104.1
101	Cn1cnc2ccc(-c3noc(-c4ccc(F)c(F)c4)n3)cc21	103.7
102	COc1ccc(-c2cc(C(F)(F)F)n3nc(C(=O)NCCCn4ccnc4)cc3n2)cc1OC	121.5
103	CCC(=O)C1=C(c2ccc(Br)cc2)N(C(=O)CC)n2cnnc2S1	98.3
104	Cc1noc(C)c1C1CCCN1Cc1cccc(Cl)c1 (stereo not drawn)	100.5
105	O=C(Nc1cc(F)c2[nH]c(=O)ccc2c1)C1CCCCC1	105.7
106	Cc1[nH]c(C)c(S(=O)(=O)N2CCCCCC2)c1-c1nnc(C2CCC2)o1	104.3
107	O=C(Nc1ccc(Br)cc1)Nc1cccc(-c2nnc(-c3ccccc3)o2)c1	97.7

The list is partial (hit frequency here may not be typical).
